HSV replic up = HSV replication enhancement | HSV replication augmentation in cells, fold increase | maximum fold increase | 220,000 compounds, 0.005% hits;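 active = peak rise of 1.5-fold or more in the series; inconclusive = self-fluorescent or not available for retest; tested in PC3 cells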;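 also: first round at 10 µM; read as green reporter fluorescence; hits show the peak of a series up to 25 µM; 1 = signal of infected wells without compound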
RGS16-Gao = RGS16-Galphao interaction regulator (human). bead-based flow cytometry RGS16-Galphao binding, fluorescence; actives lie on both sides. O15492+P09471. 220,000 compounds, 0.38% hits. binding response (% of control), % at 10 µM;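 active = below 25% or above 175%, edge rows of some plates excepted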;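 also: Galphao activated by GDP with aluminum fluoride before binding; 100% = wells without compound and 0% = beads without RGS; some results beyond the cut were filed as inactive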
Target sequence (O15492 whole entry, looked up): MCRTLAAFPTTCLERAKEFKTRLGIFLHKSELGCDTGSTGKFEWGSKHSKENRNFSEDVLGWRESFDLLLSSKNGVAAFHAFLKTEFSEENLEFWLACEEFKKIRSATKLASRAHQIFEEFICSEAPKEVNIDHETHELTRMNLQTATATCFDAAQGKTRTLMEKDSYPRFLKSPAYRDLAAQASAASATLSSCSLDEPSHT
Target sequence (P09471 whole entry, looked up): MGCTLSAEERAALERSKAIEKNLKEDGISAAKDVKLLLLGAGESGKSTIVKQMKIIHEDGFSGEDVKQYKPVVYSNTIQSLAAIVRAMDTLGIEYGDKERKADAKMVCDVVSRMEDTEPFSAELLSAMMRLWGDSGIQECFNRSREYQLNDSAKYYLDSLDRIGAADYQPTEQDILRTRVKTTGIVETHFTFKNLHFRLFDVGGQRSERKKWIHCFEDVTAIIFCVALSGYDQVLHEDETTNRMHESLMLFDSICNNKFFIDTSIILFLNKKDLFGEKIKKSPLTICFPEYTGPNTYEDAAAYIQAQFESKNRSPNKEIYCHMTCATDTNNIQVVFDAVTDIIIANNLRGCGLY
GALR2 ag = agonists of human galanin receptor 2 (GALR2); GALR2-expressing cells, agonist activation read-out; activation, %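 (tested at 5 µM)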; 140,000 compounds, 0.48% hits; AID 803;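 active = above mean plus 3 SD of all compounds, about 5% in these data, not always enough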;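 also: 0% = vehicle buffer wells and 100% = reference agonist at full effect; tested in CHO reporter cells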
Target sequence (O43603 whole entry, looked up): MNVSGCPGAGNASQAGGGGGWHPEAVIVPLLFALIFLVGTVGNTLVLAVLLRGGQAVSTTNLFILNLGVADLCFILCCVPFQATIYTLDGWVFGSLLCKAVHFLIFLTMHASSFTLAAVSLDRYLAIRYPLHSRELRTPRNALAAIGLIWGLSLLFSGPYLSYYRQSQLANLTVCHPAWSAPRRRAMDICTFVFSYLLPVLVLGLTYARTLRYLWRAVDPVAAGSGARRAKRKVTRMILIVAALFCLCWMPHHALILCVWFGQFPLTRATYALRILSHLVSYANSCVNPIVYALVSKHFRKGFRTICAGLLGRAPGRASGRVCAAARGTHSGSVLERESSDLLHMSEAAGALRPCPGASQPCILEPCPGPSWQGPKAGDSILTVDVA
INS promoter inh = TRM-6 insulin promoter activity inhibition. TRM-6 cells (human fetal islet line), insulin promoter-eGFP reporter, imaging; reporter expression induced with tamoxifen. inhibition, % at 2 µM. 130,000 compounds, 0.9% hits. AID 1273;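 active = inhibition above the mean plus 3 SD, with well images judged a real hit on visual review, cut at about 60% in these data, passing the limit was not always enough; inconclusive = inhibition over the cutoff but images rejected on review; inactive = inhibition not above the cutoff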
PKD1 kinase inh = inhibitors of human PKD1 kinase; inhibition, %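 (about 10 µM by stock and volumes)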; PKD1 kinase fluorescence polarization assay; 200,000 compounds, 0.056% hits; Q15139;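 active = inhibition of 50% or more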;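 also: controls were vehicle for no effect and a reference inhibitor for full effect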
INS promoter inh cell count = further read-out of INS promoter inh, marked with its call; normalized cell count, %; measured here: cell count, toxicity; reference of the scale not given here;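 cells exposed to compound for 48 h; stained nuclei by imaging scaled within each plate; lower means fewer cells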
HSV replic up primary fold = second read-out of HSV replic up, no call of its own (marks repeat the call); fold increase; compound at 10 µM; measured here: primary screen fold increase 10 uM; tested in PC3 cells;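 GFP signal in the first replicate; 1 = infected wells without compound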
The depositor's hits bear a star; i = inactive; ? = inconclusive; / = not tested or not shown. Compounds as they come; 1.3% or so of the library scored in one or more.

SMILES	HSV replic up	HSV replic up primary fold	RGS16-Gao	GALR2 ag	INS promoter inh	INS promoter inh cell count	PKD1 kinase inh
CCOc1ccc(N2C(=O)S/C(=C\c3cc(OC)c(OC)c(OC)c3)C2=O)cc1	i	0.89	100	/	/	/	/
CCOCCCn1c(=S)[nH]c2cc(C(=O)NCCOC)ccc2c1=O	i	0.81	99	-0.5	/	/	2
Cc1cccc(NC(=O)Nc2cnccn2)c1	i	0.98	101	/	/	/	-3
COc1cc2c(cc1OC)C(CC#N)=NC(C)(C)C2	i	0.95	99	-1.8	-6	125	-3
O=C(Cc1ccccc1)c1ccc(Cl)cc1	i	1	99	/	/	/	/
CCN=C1S/C(=C\c2sccc2C)C(=O)N1CC	i	0.78	108	0.0	-20	101	-5
O=C(C1=C(O)C(=O)N(CCOCCO)C1c1cccc([N+](=O)[O-])c1)c1cccs1 (stereo not given)	i	0.88	102	/	/	/	/
Cc1ccc(N(CC(=O)N2CCOCC2)S(=O)(=O)c2ccccc2)cc1	i	1	95	-2.7	-30	73	-9
Cc1cc(C)n(CC(=O)Nc2cccc(C(F)(F)F)c2)n1	i	0.97	107	/	38	141	7
Cc1ccc(N2CCN(C(=O)N3CCCC3)CC2)cc1Cl	i	0.93	96	-3.3	43	133	2
Oc1ccccc1-c1cc(C(F)(F)C(F)F)nc(-c2ccccc2)n1	i	1	111	-0.4	/	/	-13
C/C=C/C=[N+](\[O-])C(C)/C(=N/O)c1ccc(F)cc1 (stereo not given)	i	0.84	102	-1.7	-8	226	-6
Cc1ccc(C2CC(c3cccs3)n3nc(N)nc3N2)cc1 (stereo not given)	?	/	84	0.5	51	52	-3
COc1ccc(C(=O)c2ccc(OC)cc2OC)cc1	i	0.9	113	/	/	/	/
CC(C(=O)N1CCOCC1)N1C(=O)c2cccc3cccc(c23)C1=O (stereo not given)	i	0.95	95	/	/	/	-2
CC(=O)Nc1ccc(-c2ccc(NC(C)=O)c(O)c2)cc1O	i	0.91	96	/	/	/	/
Cc1cc(C)n2nc(C(=O)Nc3ccc4c(c3)OCO4)cc2n1	i	1.1	64	0.2	7	57	-7
COc1ccc(C(=O)C2CCCN(C(=O)Cc3c(C)noc3C)C2)cc1OC (stereo not given)	i	0.87	101	/	/	/	8
C[N+]1(CC2COC3(CCCCC3)O2)CCCC1 (stereo not given)	i	1	99	-0.1	-4	112	-13
O=C(CC1C(=O)NCCN1Cc1cccc(Oc2ccccc2)c1)NCCn1cccn1 (stereo not given)	i	1.1	107	/	/	/	2
N#CC(c1ccccc1)c1ccc(=O)[nH]n1 (stereo not given)	i	1	101	/	-59	91	-2
CCOC(=O)c1cnn(-c2ccccc2)c1NC(=O)CN1CCCCC1	i	0.98	100	/	/	/	/
O=C(/C=C/c1c(F)cccc1Cl)Nc1ccncc1	i	0.95	92	-1.1	-36	45	-9
Cc1nn(Cc2ccc(Cl)c(Cl)c2)c(C)c1NC(=O)c1cc(C2CC2)on1	i	0.85	101	-1.7	/	/	22
COc1ccc(OCCn2c(=O)sc3ccccc32)cc1	i	0.96	94	/	-58	155	-4
Cc1cccc(NC(=O)c2nc[nH]c2C(=O)N[C@@H](CC(C)C)C(=O)OC(C)(C)C)c1	i	0.88	97	/	/	/	/
Cc1ccc(Oc2cnn(-c3ccccc3)c(=O)c2Br)cc1	i	0.89	105	/	/	/	-4
N/C(=N\OC(=O)Oc1ccccc1)c1ccc(Cl)cc1	i	1	96	-3.6	/	/	-1
COC(=O)C(Cc1ccccc1)NS(=O)(=O)c1ccc(F)cc1Br (stereo not given)	i	0.85	95	/	/	/	/
O=C(O)CC1(CC(=O)Nc2ccc(F)c(Cl)c2)CCCCC1	i	0.92	102	/	/	/	/
CC(CCn1cccn1)NC(=O)c1cc(COc2ccc(F)cc2Cl)on1 (stereo not given)	i	0.88	101	/	/	/	-5
Cc1ccccc1C(=O)Nc1nncs1	i	0.97	100	26*	7	106	-5
O=C(C1CCN(C2CCN(CC3CC=CCC3)CC2)CC1)N1CCOCC1 (stereo not given)	i	1.1	99	/	/	/	-1
O=C(C1=C[C@H](c2ccc3c(c2)OCO3)C[C@H](OCCCCO)O1)N1CCN(Cc2ccccc2)CC1	i	0.9	99	/	/	/	3
CCOC(=O)Cn1c(=O)oc2cc(S(=O)(=O)NCCCc3ccccc3)ccc21	i	0.68	98	-1.5	/	/	-14
Cc1ccnc(NS(=O)(=O)c2cccs2)c1	i	0.97	102	-0.8	-49	147	-4
C/C(=N\Nc1nc(Nc2ccccc2)nc(N2CCOCC2)n1)c1cccs1	i	0.71	104	/	/	/	-5
CN(C)/C=C/C(=O)c1ccc(-c2ccc(Cl)cc2Cl)o1	i	1	98	/	/	/	7
O=C1CC(N2CCN(c3ccc(O)cc3)CC2)C(=O)N1c1ccc2c(c1)OCO2 (stereo not given)	i	0.91	98	/	/	/	4
COc1ccc(C(CC(=O)O)NC(=O)c2cccs2)cc1 (stereo not given)	i	0.97	106	-0.3	/	/	-1
CC(=O)/C(=N/Nc1ccccc1Cl)Sc1nnc(C(O)c2ccccc2)n1-c1ccccc1 (stereo not given)	i	1.1	90	-0.4	-3	141	-1
Cc1cccc(N(C(=O)Cc2cccs2)C(C(=O)NC2CCCC2)c2ccsc2)c1 (stereo not given)	i	0.92	118	-1.2	/	/	3
CCOC(=O)c1cc(C(=O)c2cc(F)ccc2O)coc1=N	/	/	98	-1.5	-54	104	-8
CCN(CC(=O)Nc1ccc2c(c1)OCCO2)c1ccc(S(=O)(=O)N2CCOCC2)cn1	i	0.95	-83*	-0.5	/	/	-4
Cc1ccc(CNc2ccc(O)cc2)cc1	/	/	85	-3.5	16	118	-7
CS(=O)(=O)c1cnc(-c2ccccc2)nc1Oc1ccc(Cl)cc1	i	0.97	104	0.0	2	103	-4
O=C1CC(NNC(=O)c2cccc(F)c2)C(=O)N1 (stereo not given)	i	1.1	101	/	/	/	/
Cn1ncc(Br)c1C(=O)NCc1cccs1	i	0.98	100	-2.2	41	129	-12
O=C(COc1ccccc1Br)NCCc1nc2ccccc2[nH]1	i	1	108	-0.5	-16	94	-1
CCC(=O)NC(=S)Nc1ccc(NC(=O)c2cccc([N+](=O)[O-])c2C)cc1	i	0.88	110	1.0	0	153	-12
CCCCn1c(SCC(=O)Nc2nccs2)nc2ccccc2c1=O	i	0.84	106	-0.2	17	131	2
O=C(CC1NCCc2ccccc21)Nc1ccccc1 (stereo not given)	i	0.84	114	/	-7	97	-13
COC(=O)c1sccc1Oc1ccc(F)cc1[N+](=O)[O-]	i	0.98	98	-0.3	6	98	-7
COc1ccc2nc(-n3c(O)c(C4=c5ccccc5=NC4=O)[nH]c3=S)sc2c1	i	0.85	28	0.1	/	/	3
COc1ccc(NC(=O)C2(c3ccc(NC(=O)c4ccc(OC)cc4)cc3)CCCC2)cc1	i	1.1	92	-1.7	-56	148	-5
COc1ccc(C(c2nnnn2CC2CCCO2)N2CCC(C(N)=O)CC2)cc1 (stereo not given)	i	0.99	106	-0.6	14	62	-5
Cc1ccc(C(=O)Oc2coc(CSc3nnc(NC(=O)C4CC4)s3)cc2=O)cc1	/	/	100	0.0	/	/	7
CS(=O)(=O)N1CCCC(C(=O)c2cccc(Cl)c2)C1 (stereo not given)	i	0.98	109	/	/	/	-3
CC(C)(Oc1ccc(Cl)cc1)C(=O)NCc1ccncc1	i	0.82	101	1.3	-17	64	-4
C=C(C)c1cccc(C(C)(C)NC(=O)Nc2nncs2)c1	i	0.95	104	/	/	/	/

Part of the list above, as comma-separated lines:
molecule,HSV replic up,HSV replic up primary fold,RGS16-Gao,GALR2 ag,INS promoter inh,INS promoter inh cell count,PKD1 kinase inh
Cc1ccc(CNc2ccc(O)cc2)cc1,/,/,85,-3.5,16,118,-7
CS(=O)(=O)c1cnc(-c2ccccc2)nc1Oc1ccc(Cl)cc1,i,0.97,104,0.0,2,103,-4
O=C1CC(NNC(=O)c2cccc(F)c2)C(=O)N1 (stereo not given),i,1.1,101,/,/,/,/
Cn1ncc(Br)c1C(=O)NCc1cccs1,i,0.98,100,-2.2,41,129,-12
O=C(COc1ccccc1Br)NCCc1nc2ccccc2[nH]1,i,1,108,-0.5,-16,94,-1
CCC(=O)NC(=S)Nc1ccc(NC(=O)c2cccc([N+](=O)[O-])c2C)cc1,i,0.88,110,1.0,0,153,-12
CCCCn1c(SCC(=O)Nc2nccs2)nc2ccccc2c1=O,i,0.84,106,-0.2,17,131,2

The listing continues:
SMILES	HSV replic up	HSV replic up primary fold	RGS16-Gao	GALR2 ag	INS promoter inh	INS promoter inh cell count	PKD1 kinase inh
CC1(C)CC(=O)/C(=C\c2cccc([N+](=O)[O-])c2)C(C)(C)N1	i	0.9	105	-0.7	-44	107	-7
COc1ccc(CN(C2CCCC2)S(=O)(=O)c2ccc(-n3cnnn3)c(OC)c2)cc1OC	i	1.1	94	-1.5	-31	122	-7
O=C1CC(c2ccc(S(=O)(=O)N3CCCCC3)cc2)CN1 (stereo not given)	i	0.82	103	-2.3	2	129	2
CC1(C)CC(=O)C(C=NCCO)=C(O)C1	i	1.1	93	-2.8	-33	108	0
CCOC(=O)C1CCN(C(=O)c2ccc(NC(=O)C3CCCO3)cc2)CC1 (stereo not given)	i	0.97	99	-0.8	3	49	-2
CCCC(C)C(=O)Nc1nc(C)c(-c2csc(Nc3ccccc3OC)n2)s1 (stereo not given)	i	0.67	102	-0.6	0	120	-2
CN(Cc1ccccc1)S(=O)(=O)c1ccc2c(c1)n(C)c(=O)c(=O)n2C	i	0.99	100	/	/	/	/
COc1ccc(C2=NN(C(=O)CSc3nc4ccccc4s3)C(c3ccc(F)cc3)C2)cc1 (stereo not given)	i	0.92	102	-1.1	7	68	-6
CS(=O)(=O)c1cccc(C(=O)NCc2ccc(F)cc2)c1	i	1	100	-2.4	-9	25	9
CC(C)c1ccc(S(=O)(=O)/N=C2/C=CC(=O)c3ccccc32)cc1	i	0.97	85	/	/	/	4
COc1ccccc1NC(=O)Nc1ccccc1SC	i	1.1	100	/	5	144	-5
COc1cc(C(=O)N2CCC(N3CCCCCC3)CC2)cc(OC)c1OC	i	1.2	/	-2.7	-19	138	-1
O=C(Cc1ccccc1)N[C@@H](Cc1ccc(O)cc1)C(=O)O	i	0.67	96	/	/	/	/

Reprinted from the listing for reference:
SMILES	HSV replic up	HSV replic up primary fold	RGS16-Gao	GALR2 ag	INS promoter inh	INS promoter inh cell count	PKD1 kinase inh
COc1ccccc1NC(=O)Nc1ccccc1SC	i	1.1	100	/	5	144	-5
COc1cc(C(=O)N2CCC(N3CCCCCC3)CC2)cc(OC)c1OC	i	1.2	/	-2.7	-19	138	-1
O=C(Cc1ccccc1)N[C@@H](Cc1ccc(O)cc1)C(=O)O	i	0.67	96	/	/	/	/

Single records (already shown). Screens in order: HSV replic up | HSV replic up primary fold | RGS16-Gao | GALR2 ag | INS promoter inh | INS promoter inh cell count | PKD1 kinase inh
Listed for CN(C)/C=C/C(=O)c1ccc(-c2ccc(Cl)cc2Cl)o1 → i | 1 | 98 | / | / | / | 7
Listed for O=C(CC1C(=O)NCCN1Cc1cccc(Oc2ccccc2)c1)NCCn1cccn1 (stereo not given) → i | 1.1 | 107 | / | / | / | 2

Screening results: PubChem, several laboratories
